Source: PubChem BioAssay
GLA inh pH 4.5 = inhibitors of human alpha-galactosidase A at pH 4.5 | P06280 | purified enzyme, 4-MU-alpha-Gal fluorescence, pH 4.5 | activity change, negative = inhibition, % at 105 µM | 230,000 tested, under 10 active | AID 1467; inconclusive = small, poorly fitted or top-dose-only inhibition, or a rising curve; inactive = flat fitted curve, though single readings scatter; no compound was filed as active;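 note: 0% = full activity with enzyme and -100% = basal without enzyme; dose as in the result columns while the protocol names 77 µM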
Target sequence (P06280 whole entry, looked up): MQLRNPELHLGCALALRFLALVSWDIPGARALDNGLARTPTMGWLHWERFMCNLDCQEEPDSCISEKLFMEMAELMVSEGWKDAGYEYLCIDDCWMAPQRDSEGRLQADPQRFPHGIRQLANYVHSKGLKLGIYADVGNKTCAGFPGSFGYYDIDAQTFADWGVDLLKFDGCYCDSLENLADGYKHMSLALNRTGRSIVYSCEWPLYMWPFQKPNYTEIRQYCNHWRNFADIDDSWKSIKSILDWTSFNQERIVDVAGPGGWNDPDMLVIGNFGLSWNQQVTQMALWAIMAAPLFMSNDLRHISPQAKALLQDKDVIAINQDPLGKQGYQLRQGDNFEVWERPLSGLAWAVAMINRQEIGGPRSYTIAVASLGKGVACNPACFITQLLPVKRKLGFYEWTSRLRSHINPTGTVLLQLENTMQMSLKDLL
Rango-impB inh = inhibitors of Rango-importin beta complex formation. Q14974. Rango CFP/YFP FRET sensor + importin beta, 45 min. Potency, µM (doses to about 92.2 µM), without a hit: at the top dose inhibition of complex formation. actives 0.031% (n = 340,000). AID 540263; active = rising FRET ratio curve, often small or poorly fitted; inconclusive = mostly compound fluorescence or quenching in the first reads; inactive = flat curves in all reads;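 note: potency is the fitted concentration of half-maximal effect; 0% = DMSO wells and 100% = buffer wells lacking importin beta; nearly all actives have a fitted effect of over 15% in size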
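Inhibition scored from the CFP 486 nm/YFP 530 nm FRET ratio 45 min after adding 0.125 microM importin beta to 50 nM Rango biosensor preincubated 5 min with compound (room temperature, PBS with DTT, Tween-20, BSA). No-importin wells as positive control.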
Rango dissoc inh = inhibition of RanGTP-driven Rango-importin beta dissociation; O95149+P62826; actives 0.071% (n = 340,000); Biochemical FRET Rango-importin beta, RanGTP-induced dissociation; Potency, µM (series often up to 46.1 µM), for inactives: at the top dose activity change, negative = inhibition; active means falling FRET ratio curve, often poorly fitted, with flat reads before Ran was added; inconclusive means other falling curves, or compound fluorescence or quenching; inactive means flat or rising ratio curve;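 note: potency is the fitted concentration of half-maximal effect; % of control where 0% means no effect; nearly all actives have a fitted effect of over 45% in size; -100% = wells without RanGTP and RCC1; the record marks most hits as doubtful in a second field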
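Compounds sat 5 min at room temperature with 0.1 uM Rango biosensor plus 0.25 uM importin beta, then FRET pre-read. RanGTP-RCC1 (0.6 uM Ran, 2mM GTP, 0.2 uM RCC1) added for 45 min, and the CFP/YFP post-read measured blocked complex dissociation.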
miR-21 reporter = raises the signal of a miR-21 reporter. HeLa miR-21 FLuc reporter, luciferase, 48 h. Potency, µM (highest dose often 38.3 µM), without a hit: at the highest dose reporter change, positive = more light. 340,000 tested, under 10 active; active = well fitted rising curve with a large enough effect; inconclusive = small, poorly fitted or top-dose-only effect; inactive = no such curve, though single readings can be large or run the other way;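 note: % of control where 0% means no effect; miR-21 action dims this reporter so a rising signal means less miR-21 action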
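Using DMEM plus 10% FBS, HeLa miR-21-FLuc cells are incubated with test compounds (final up to about 40uM) for 48 hours; firefly luciferase signal is then imaged following reagent-mediated lysis.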
* = called active by the depositor; u = inconclusive; x = no result given; [ ] = remark or other dose. Not all compounds are listed. The share of hits here may be higher or lower than overall.

SMILES | GLA inh pH 4.5 | Rango-impB inh | Rango dissoc inh | miR-21 reporter
O=C(NNc1cccc(Cl)n1)C1CC1 | 6 | -0.8% | 1% | 1%
CCOC(=O)C1=C(N)N2C(=O)CSC2=C(C(=O)OC)C1 | -10 | u | -17% | 0%
CC(=O)N1CCc2cc(Br)cc(S(=O)(=O)NCCCN3CCC(C)CC3)c21 | -8 | 4.1% | 0% | -3%
COc1cccc(C(=O)C2CCCN(Cc3cccc(OCCO)c3)C2)c1 (stereo unspecified) | x | 6.1% | u | 10%
CC1CCCC(C)N1C(=O)COC(=O)c1c[nH]c2ccccc12 (stereo unspecified) | x | 0.0% | 1% | x
CC(=O)c1ccc(NC(=O)CCNC(=O)c2ccc(Cl)cc2)cc1 | x | 1.0% | 12% | -24%
O=C(COC(=O)/C=C/c1cccc(F)c1)Nc1cccc(S(=O)(=O)NC2=NCCCCC2)c1 | x | 2.4% | 7% | x
CCOC(=O)c1cc2sc(C)cc2n1CC(=O)NCc1ccc(F)cc1 | 5 | 0.4% | 11% | 0%
CC(=O)Nc1ccc(Sc2ccccc2C(=O)O)cc1 | u | -3.6% | 2% | 4%
O=C1C(Cl)=C(NCCN2CCOCC2)C(=O)c2ccccc21 | x | -2.4% | 3% | 15%
CCCC(=O)Nc1c2c(nn1-c1ccc(OC)cc1)CS(=O)(=O)C2 | -2 | 0.6% | 8% | -1%
CCCCNC(=O)c1oc2ccc(S(=O)(=O)N3CCCC3)cc2c1C | x | 2.1% | 18% | 1%
CCN(CC)C(=O)[C@H]1CC(CC(=O)NC(C)(C)C)C(=O)N2CCc3c([nH]c4ccc(OC)cc34)[C@]12C (stereo partly specified) | x | -4.2% | 3% | x
CN(C)CCNc1ncnc2oc(-c3ccccc3)c(-c3ccccc3)c12 | x | 1.9% | 1% | -16%
CN(C(=O)c1cccc(NC(=O)Cc2ccc(NC(=O)C3CCN(C(=O)C4CCC4)CC3)cc2)c1)C1CC1 | x | -5.6% | -11% | x
COc1ccc(-c2noc(CCc3ccccc3)n2)cc1 | 1 | 3.8% | 50% | -53%
Cc1ccc(NC(=S)NC(=O)c2cncc(Br)c2)cc1Cl | x | 0.0% | -1% | x
Cn1cc(Br)c(-c2cccc(N3C(=O)CC(C)(C)CC3=O)c2)n1 | 3 | -1.3% | -17% | -1%
COCCN1CCn2c(nc3cc(Nc4nnc(C)c5ccccc45)ccc32)C1 | 1 | 2.0% | -1% | -5%
O=S1(=O)Nc2c(ccc3cccnc23)-c2ccccc21 | -8 | -1.4% | 2% | u
O=c1c2ccccc2nc(SCc2nc3ccccc3s2)n1CCCO | 2 | u | -6% | -81%
CS(=O)(=O)N1N=C(c2ccco2)CC1c1ccc(Br)cc1 (stereo unspecified) | -8 | 3.3% | 4% | -42%
CCOC(=O)C1CCCN(C/C=C/c2ccccc2[N+](=O)[O-])C1 (stereo unspecified) | -4 | -1.8% | 11% | -4%
O=C(OCC(O)C(O)C(O)C(SCc1ccccc1)SCc1ccccc1)c1ccccc1 (stereo unspecified) | x | -0.4% | 1% | x
c1ccc(CSc2ccc3nnc(-c4cccnc4)n3n2)cc1 | 3 | 4.7% | -5% | -10%
S=C1NNC2(CC3CC2C2CCCC32)NN1 (stereo unspecified) | -2 | 2.0% | -7% | -12%
O=C(O)c1ccc(NC(=S)N2CCCCC2)cc1 | 3 | u | 5% | -15%
C(=N\Nc1nc2ccccc2[nH]1)/c1cccs1 | -4 | 3.4% | 22% | -53%
O=C(OCc1nc2ccsc2c(=O)[nH]1)c1ccccc1 | x | -1.4% | -7% | x
Cc1cc(C)cc(NC(=O)CCC(=O)Nc2nnc(C(C)C)s2)c1 | x | -3.3% | -3% | 2%
O=C(CCNS(=O)(=O)c1cccc2nsnc12)NCCc1ccccc1 | -8 | -2.5% | -9% | 1%
N#CC(C#N)=C1C=C2C=C(N3CCOCC3)CCC2CC1 (stereo unspecified) | -17 | u | u | 5%
COc1ccc(C=O)cc1OS(=O)(=O)c1ccc(NC(C)=O)cc1 | 4 | -5.5% | 0% | 12%
O=C(Cc1nnc(NC(=O)c2ccccc2)s1)N/N=C\c1ccc(O)c(O)c1 | x | -6.3% | -17% | -15%
c1ccc(Nc2c3c(nc4ncnn24)CCC3)cc1 | 7 | 4.4% | -7% | -53%
C[C@H](NC(=O)c1ccc(C(C)(C)C)cc1)C(=O)N1CCOCC1 | x | 2.0% | 1% | x
Cc1c(Cl)cccc1Nc1nc(N)nc(CN2CCCCCC2)n1 | -1 | -1.7% | -23% | -5%
N#Cc1ccccc1Sc1ccccc1C(=O)OCC(=O)NC12CC3CC(CC(C3)C1)C2 | -2 | -4.8% | -5% | 5%
COc1ncccc1C(=O)N1CCCC(C(=O)c2cc(F)ccc2F)C1 (stereo unspecified) | 7 | 0.3% | -5% | 0%
C=Cn1cc[n+](CC(=O)c2ccc(-c3ccccc3)cc2)c1 | x | 6.6% | 5% | 9%
CC(SC1CCCC1)C(=O)NC(C)(C#N)C(C)C (stereo unspecified) | 2 | -0.2% | 23% | 0%
CN(C)CCCN(C(=O)c1ccco1)c1nc2c(F)cc(F)cc2s1 | -5[21.1 µM] | u | -20% | -15%
O=C(CSC(=S)N1CCCC1)Nc1ccc(Br)cc1Cl | x | -1.6% | 5% | x
Cn1c(SCC(=O)Nc2ncc(C(F)(F)F)cc2Cl)nnc1-c1ccc(Cl)cc1 | 3 | -0.9% | -4% | -1%
Cc1cc2c(cc1C)C(c1ccccc1Br)CC(=O)N2 (stereo unspecified) | 3 | 0.1% | -7% | 23%
Cc1[nH]c(N)nc(=S)c1CCCNc1ccccc1 | x | 0.2% | 8% | x
CCNC(=O)CSc1nnc(-c2ccccc2Br)n1-c1cccc(C(F)(F)F)c1 | -4 | -4.0% | 26% | -9%
C=CCc1cccc(CNc2nc3ccccc3n2C(C)C)c1O | -16 | -1.3% | 18% | 21%
CCCn1c(CCl)nc2cc(S(=O)(=O)N3CCOCC3)ccc21 | x | 0.1% | 22% | x
O=C1C(=O)N(c2ccccc2)C(c2ccccc2[N+](=O)[O-])/C1=C(\O)c1ccccc1 (stereo unspecified) | 3 | -3.8% | u | -18%
COC(=O)C1=NNC2(c3ccc(C)cc3)C(=O)N(c3cccc(C)c3C)C(=O)C12 (stereo unspecified) | -14 | 2.5% | 1% | 0%
CCCN(CC(=O)Nc1ccc(F)c(F)c1F)Cc1cc(=O)n2ccsc2n1 | -21 | -0.9% | -9% | -3%
CC1CC(C)CN(C(=O)CSc2n[nH]c(N)n2)C1 (stereo unspecified) | x | -3.6% | 5% | x
Cc1cc2nnc(SCC(=O)Nc3cccc(S(=O)(=O)N4CCOCC4)c3)n2c2ccccc12 | 3 | -0.1% | 1% | -3%
Cc1c(OCC(=O)NCCCN2CCCC2=O)ccc2c3c(c(=O)oc12)CCC3 | x | 3.3% | u | -16%
COc1cccc(N=Cc2nc(-c3ccccc3)oc2OC(C)=O)c1 | -14 | -1.4% | 5% | -6%
c1nc(N2CCNCC2)c2sc3nc(N4CCOCC4)c4c(c3c2n1)CCC4 | 3 | x | x | -1%
CN1CCCC(OC(=O)c2cc(Cl)cc(Cl)c2)C1 (stereo unspecified) | 10 | 2.4% | 0% | 2%
O=C(O)Cn1nnnc1SCC(=O)Nc1ccc(OC(F)(F)F)cc1 | -1 | 0.1% | -10% | -1%
CCN(CC)Cc1cc(NC2=NS(=O)(=O)c3ccccc32)ccc1OC(=O)c1ccccc1 | -1 | 2.9% | 15% | -14%

The results go on:
SMILES | GLA inh pH 4.5 | Rango-impB inh | Rango dissoc inh | miR-21 reporter
CCOC(=O)C1CCCN(C(=O)c2ccc(CS(=O)(=O)c3ccc(C)cc3)o2)C1 (stereo unspecified) | -7 | -7.6% | -2% | -1%
Cc1cc(C)c2cc(C(=O)Nc3ccc(C)c(F)c3)[nH]c2c1 | x | 7.4% | -4% | -6%
Cc1cccc(NC(=O)Nc2cc(C)cc(C)n2)c1 | 4 | -3.8% | -7% | -64%
Cc1cc2cc(CNC(=O)CCC(=O)O)ccc2n1C | -5 | -1.0% | -11% | -1%
COc1ccc(-c2cc(C(=O)NCCCN3CCOCC3)c3ccccc3n2)cc1OC | x | -0.3% | -2% | x
COC(=O)Cc1c(C)c2ccc(OC(=O)c3ccccc3)cc2oc1=O | u | -2.3% | u | -3%
CC(C)OC(=O)CSc1nnc(-c2ccccn2)n1-c1ccccc1 | -1 | -0.1% | 0% | 2%
O=C(CN1CCN(c2ccccn2)CC1)Nc1cccc(C(F)(F)F)c1 | -9 | u | 1% | -4%
Cc1[nH]c(C(=O)O)c(C#N)c1C(=O)c1ccccc1 | x | 0.5% | -8% | -2%
CCOc1ccc(/C(O)=C2/C(=O)C(=O)N(c3ncccn3)C2c2ccc(C)cc2)cc1 (stereo unspecified) | -3 | u | -26% | 7%
O=C(CN1CCN(c2ccc(F)cc2)CC1)c1ccc2c(c1)OCO2 | -23 | -0.2% | -5% | -2%
OCCC1CN(Cc2cccc3nccnc23)CCN1C1CCCC1 (stereo unspecified) | -8 | 0.3% | -12% | -3%
CC(=O)Nc1ccc(S(=O)(=O)N(C)CC(=O)N/N=C/c2cccs2)cc1 | x | -2.9% | -1% | 0%
CN(C)S(=O)(=O)c1cccc(NC(=O)CNC2CCCCC2)c1 | 1 | -2.0% | 12% | -2%
O=C(COc1ccc(F)cc1)N(CC1=CCS(=O)(=O)C1)c1ccccc1 | 5 | 0.0% | 1% | -3%
O=C(c1cccs1)N1CCN=C1SCc1ccccc1 | 1 | -1.1% | 10% | -8%
CN(C1CCCCC1)S(=O)(=O)c1ccc(SCC(=O)NC(C)(C)C)nc1 | x | -0.9% | -15% | x
CC(C)(C)CC(C)(C)NCC(O)COc1c(F)cc(Br)cc1F (stereo unspecified) | -13 | 0.1% | 2% | 7%
Cc1cccc(NC(=O)Cn2cnc3sc(C)c(S(=O)(=O)N4CCC(C)CC4)c3c2=O)n1 | 2 | 2.8% | -16% | 2%
Cc1cnc(NC(=O)[C@H](C)N2C(=O)C3CCCCC3C2=O)s1 (stereo partly specified) | 11 | -0.5% | 2% | 0%
CCOC(=O)/C=C1\NC2(CCCCC2)Cc2cc(OC)c(OC)cc21 | x | -5.8% | -13% | x
COc1ccc(C(=O)NCC(=O)Nc2cccc(S(=O)(=O)N3CCCC3)c2)cc1 | x | -2.8% | -8% | x
CN=C1S/C(=C\c2c(OC)cc(OC)cc2OC)C(=O)N1C | x | u | u | -12%
O=C(NCc1cccs1)[C@@H]1CCCN1S(=O)(=O)c1ccccc1F | x | -4.1% | 15% | x
COc1ccc(Nc2cc(C)c3cc([N+](=O)[O-])ccc3n2)cc1 | x | 4.8% | u | -4%
Cc1cccc(C)c1OCC(O)CN (stereo unspecified) | 0 | -1.5% | 1% | 1%
Cc1cccc(Nc2cc(C)nc3ccccc23)c1 | x | 1.7% | 5% | 6%
Cc1nnc(-c2ccccc2)o1 | 2 | -1.1% | -13% | -1%
Cc1c(NC(=O)CSc2nnnn2Cc2ccccc2)c(=O)n(-c2ccccc2)n1C | 3 | 2.2% | -4% | -5%
COc1ccc(NC(=O)CCSc2ccc(F)cc2)cc1 | -11 | 1.1% | -4% | -68%
